Tgondii IFNg: blocks Toxoplasma gondii growth in the presence of IFN-gamma | Toxoplasma gondii growth in IFN-gamma-treated host cells; active compounds read low; reference of the scale not given here | activity change, negative = inhibition, %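 (about 20 µM by stock and volumes)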 | hit rate 3.8% among 69,000;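 active means below -70%; inconclusive means fit judged invalid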;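 further: host cells are HeLa cells infected with Toxoplasma gondii; parasite growth read as luciferase light; one replicate is shown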
* = called active by the depositor; i = inactive; u = inconclusive; & = joins results of further samples. The list is partial; count on the stated rates, not on these rows.

SMILES	Tgondii IFNg
CCn1cc2c(n1)CN(C(=O)c1ccco1)CC2COCC1CC1 (stereo unspecified)	124
CCn1cc(Cn2ccnc2C2CCOC2)cn1 (stereo unspecified)	5
Cc1cc2ccccc2n1CCNC(C)Cn1cncn1 (stereo unspecified)	-4
C/C=C/c1ccc([C@H]2[C@@H](C#N)N(c3nc(CC)cs3)[C@@H]2CO)cc1	-11
COc1ccccc1CNC(=O)Cc1ccccc1	4
COc1ccc(C(=O)N2CCC3(CC2)Nc2ccc(C)c(C)c2-n2cccc23)cc1OC	33
Cc1oc(C2CCN(C(=O)Cc3c(F)cccc3Cl)CC2)nc1C(=O)N1CCCCC1	u
CCCCNC(=O)c1nc(Nc2cccc(C)c2)c2ccccc2n1	-57
CCN(CC)Cc1cnc2c(C(=O)Nc3c(C)cc(=O)[nH]c3C)cnn2c1	-1
NNC(=S)Nc1cc(C(F)(F)F)ccc1Cl	28

The closing seven compounds of the part before open the next one:
SMILES	Tgondii IFNg
C/C=C/c1ccc([C@H]2[C@@H](C#N)N(c3nc(CC)cs3)[C@@H]2CO)cc1	-11
COc1ccccc1CNC(=O)Cc1ccccc1	4
COc1ccc(C(=O)N2CCC3(CC2)Nc2ccc(C)c(C)c2-n2cccc23)cc1OC	33
Cc1oc(C2CCN(C(=O)Cc3c(F)cccc3Cl)CC2)nc1C(=O)N1CCCCC1	u
CCCCNC(=O)c1nc(Nc2cccc(C)c2)c2ccccc2n1	-57
CCN(CC)Cc1cnc2c(C(=O)Nc3c(C)cc(=O)[nH]c3C)cnn2c1	-1
NNC(=S)Nc1cc(C(F)(F)F)ccc1Cl	28
COC(C)c1cccc(-c2cc(N)ncn2)c1 (stereo unspecified)	5
O=C(c1ccc(Cn2cnnn2)cc1)N1CCCC(c2ccn[nH]2)C1 (stereo unspecified)	-21
Cc1ccc(C)c(-c2nc(CSc3nc4c(=O)[nH]cnc4n3C)c(C)o2)c1	0
Cc1cnc(CNC(=O)C2=NOC3(CCN(C(=O)CC(C)C)C3)C2)cn1 (stereo unspecified)	10
O=C(c1ccsc1)N1CC[C@@H](c2ccc3c(c2)OCO3)[C@H](O)C1	-45
COCC1CN(C(=O)N(C)C)Cc2nnn(C)c21 (stereo unspecified)	-21
CCOC(=O)COc1ccc(Cl)cc1C(=O)OC	-38
CCCNC(=O)N(C)C[C@@H]1Oc2cc(C#C[C@H](C)O)ccc2S(=O)(=O)N([C@H](C)CO)C[C@H]1C	-70
Cc1ccc(-c2ccccc2CC2(C(=O)Nc3cccc(C(N)=O)c3)CCOCC2)c(C)c1	11
O=C(CC(F)(F)F)N1C[C@H]2[C@@H](c3ccccc31)[C@@H](CO)N2C(=O)c1ccncc1	1
C=CC[C@@H]1CC=C[C@@H](C)N1C(=O)CCn1nnc2ccccc21	36
Cc1cc(C(=O)N2CCCC3(CCN(C)CC3)CC2)nc(C)n1	-30
Cc1ccc(CNC(=O)c2nc(Nc3cccc(C)c3)c3ccccc3n2)cc1	-79*
CN(C)CC1(O)CCCN(C(=O)c2cnc(N3CCOCC3)nc2)C1 (stereo unspecified)	5
CN(C)C(=O)N[C@@H]1CN(Cc2nccn2C)C2CCCOC21 (stereo partly specified)	39
Cc1cc2cccc(C(=O)N3CCN4CCN(C)C(=O)C4C3)c2o1 (stereo unspecified)	118
Cc1csc(CN2C[C@H]3CN(S(C)(=O)=O)CCO[C@@H]3C2)n1	20
COc1cncc(C(=O)Nc2cc(F)ccc2F)c1	69
CCc1cnc(N2[C@H](C#N)[C@H](c3ccc(-c4cccc(F)c4)cc3)[C@@H]2CO)s1	-7
O=C(C1CCN(c2nc3ccccc3s2)CC1)N1CCc2ccccc21	70
c1ccc(-c2[nH]cnc2-c2cccc(-n3cccn3)c2)cc1	-95*
Cc1ccc(S(=O)(=O)Nc2ccc3c(c2)C(=O)N([C@@H](C)CO)C[C@@H](C)[C@@H](CN(C)Cc2ccc(C(F)(F)F)cc2)O3)cc1	-17
Cc1ncsc1C(=O)N1CCC(c2cc3nc(N(C)C)ncc3c(=O)[nH]2)CC1	8
O=C(NCc1ccccn1)C1CNCCN1C(=O)c1cnc2ccccc2c1 (stereo unspecified)	2
CCOC(=O)Cc1csc(NC(=O)CSc2nnc(-c3ccncc3)o2)n1	10
Cc1cc(C)n(C)c(=O)c1C(=O)NCCc1cc(N2CCOCC2)nc(N2CCCC2)n1	5
COc1ccc2c(c1)NC1(CCN(C(=O)c3ccccc3C(F)(F)F)CC1)c1cccn1-2	30
O=C(c1cccc(F)c1)N1CC2(C1)[C@@H](c1ccccc1)[C@@H](CO)N2C(=O)C1CCCCC1	-26
C=CCN1C(=O)CCC12CCC(NC(=O)c1cscn1)CC2 (stereo unspecified)	0
O=C(Cc1ccccc1)N1C[C@H]2[C@@H](c3ccccc31)[C@@H](CO)N2S(=O)(=O)c1ccccc1	-3
Cc1nc(CN)cc(N(C)Cc2nonc2C)n1	-7
COc1ccc(-c2nc3c(s2)CN(C(=O)Nc2ccc(C)cc2Cl)CC3)cc1OC	29
Clc1ccc(CSc2cccs2)cc1	11
CCN(Cc1nc(COC)no1)C(=O)c1cnn2ccccc12	0
FC(F)(F)c1cccc(-n2cnnn2)c1	-22
CC(=O)N1[C@H](CNC(=O)C2CC2)[C@@H](c2ccc(-c3ccccc3)cc2)[C@@H]1CO	12
CCC(CC)n1ncc(C)c1NC(=O)c1cccc(C#CC(C)(C)O)c1	-25
C[C@@H]1CN([C@@H](C)CO)C(=O)c2cc(N(C)C)ccc2O[C@H]1CN(C)Cc1ccc(Oc2ccccc2)cc1	51
CN(C)Cc1cc(-c2ccc(CNC(=O)c3cc(C(C)(C)C)nn3C)cc2)nn1C	-59
CNc1cc(C2CCN(S(=O)(=O)c3ccc(OC)cc3)CC2)nc(-c2cccnc2)n1	-11
O=C(C[C@H]1CC[C@H]2[C@@H](COC[C@@H](O)CN2Cc2cc(F)cc(F)c2)O1)Nc1nccs1	-27
O=C(C1CNCCN1C(=O)CCc1cccnc1)N1CCOCC1 (stereo unspecified)	-4
O=C(c1cc2cccnc2n(Cc2ccccc2)c1=O)N1CCN(Cc2ccccc2)CC1	9
CNC(=O)C1(Cc2ccc(-c3cccnc3)cc2)CCCN(C(=O)COc2ccccc2)C1 (stereo unspecified)	-22
Cc1ccc(OCC(=O)NCCc2csc(-c3ccc(F)cc3)n2)cc1	2
Cc1cnc2n1CCN(C)C21CCN(S(C)(=O)=O)CC1	-2
C[C@@H]1CN([C@@H](C)CO)C(=O)c2cc(NC(=O)Nc3ccc(C(F)(F)F)cc3)ccc2O[C@@H](C)CCCCO[C@H]1CN(C)S(=O)(=O)c1ccc(Cl)cc1	u
COc1cccc(CNC(=O)Cn2ncc3c(N4CCN(c5ccccn5)CC4)ncnc32)c1	33
CN(Cc1ccccc1)C(=O)C(Cc1ccc2ccccc2c1)NC(=O)C1CCCN1C(=O)Nc1ccccc1[N+](=O)[O-] (stereo unspecified)	-52
O=c1c(F)cn(CC2CC(c3ccccc3)=NO2)c(=O)n1CC1CC(c2ccccc2)=NO1 (stereo unspecified)	40
Going on with the list.
SMILES	Tgondii IFNg
CO[C@H](CN(C)CC1CCOCC1)[C@@H](C)CN(C(=O)Nc1ccc(F)cc1)[C@H](C)CO	0
C[C@H](CO)N1C[C@H](C)[C@@H](CN(C)C(=O)C2CCOCC2)Oc2ncc(-c3cccc(C#N)c3)cc2C1=O	159
CCSc1nc(CC(=O)NCc2ccncc2)cs1	47
Cc1ccc(CN2CCC[C@@]3(C(=O)N4CCOCC4)CN(c4ncccn4)C[C@H]3C2)s1	16
O=C(CSc1ccccc1)NCCCN1CCOCC1	16
O=S(=O)(c1ccccc1)N1CC2CN(Cc3ccccc3F)CC2C1 (stereo unspecified)	-11
COc1ccc(CCN(Cc2nc3ccccc3c(=O)[nH]2)C(=O)C(C)(C)C)cc1	-23
CCOC(=O)c1cccc(NC(=O)C2=C(C)C(=O)OC23CCN(S(=O)(=O)CC)CC3)c1	42
CO[C@H]1CN(C)C(=O)c2ccc(NS(C)(=O)=O)cc2OC[C@H](C)N(C(=O)CN(C)C)C[C@H]1C	55
O=C(O)CNc1ccccc1C(=O)N1CCC(O)(c2ccc(F)cc2)CC1	8
CSc1ncccc1C(=O)N1CCc2c(nc(N(C)C)[nH]c2=O)C1	-4
O=C(NCCc1csc(-c2ccc(F)cc2)n1)c1ccc(C(F)(F)F)cc1	-65
COCCN(Cc1cnn(C)c1)C(=O)C(=O)c1cccs1	3
O=C(NCc1cc(-c2cccnc2)no1)c1cnn(Cc2ccccc2)c1	-3
CN(Cc1cc(-c2ccncc2)no1)Cc1ccccc1-c1ccco1	-63
CCCCN(CCCNC(=O)C1=C(C)C(=O)OC12CCN(Cc1ccccc1)CC2)Cc1ccccc1	-9
Cc1nc(C(C)NC(=O)Cn2c(C3CC3)nc3ccccc32)n[nH]1 (stereo unspecified)	-7
Cc1cccc(-c2cn(Cc3ccccc3C(F)(F)F)nn2)n1	-2
C[C@H](CO)N1C[C@H](C)[C@@H](CN(C)C(=O)Nc2cccc(F)c2)Oc2cc(C#CC3(O)CCCC3)ccc2S1(=O)=O	-93*
CN1C(=O)c2cc(NS(=O)(=O)c3cccc(F)c3)ccc2OC[C@H]2O[C@H](CC(=O)N3CCc4ccccc4C3)CC[C@H]21	2
CCN(CC)C(=O)CC1CC2(CCN(c3ncccn3)CC2)c2ccccc21 (stereo unspecified)	-25
CN(C)CC(=O)N1CC[C@H]2[C@H]1CC(=O)N2c1ccsc1	-2
CCCN1[C@H](CO)[C@H](c2ccc(C3=CCCC3)cc2)[C@H]1CNC(=O)NC(C)C	-31
O=C(NCc1cccnc1-n1ccnc1)c1cnc(CN2CCCC2)s1	-3
Cc1nc(NCc2ccccc2OC(C)C)cc(C(C)n2ncc3ccccc3c2=O)n1 (stereo unspecified)	14
CNCC(O)Cn1cc(C)c(C(C)=O)c1C (stereo unspecified)	23
Cc1cnc(N2C[C@@H]3C[C@H](C(=O)N(C)C)[C@@H](C2)O3)nc1	5
COc1cc(CN2CC3(CN(C(=O)Nc4c(C)noc4C)C3)c3c([nH]c4cc(OC)ccc34)[C@@H]2CO)cc(OC)c1	61
Cc1cccc(NC(=O)CN2C(=O)CCc3cc(S(=O)(=O)N4CCC(C)CC4)ccc32)c1C	36
O=c1[nH]c2cc(F)ccc2c(O)c1-c1nc(-c2cccc(F)c2)no1	-3
O=C(c1ccc(N2CCSCC2)nc1)N1CCC(N2CCOCC2)CC1	-47
COc1ccc(NC(=O)N[C@@H]2CC[C@@H](CCNC(=O)CN3CCOCC3)O[C@@H]2CO)cc1	-34
O=c1cc(-c2ccccc2)oc2c(O)c(O)ccc12	-92*
CS(=O)(=O)c1ccc(-c2nc3ccccc3n2CCO)cc1	5
Cc1cc(C)n(-c2cccc(CN3CCC(N)(C(=O)O)C3)c2)n1 (stereo unspecified)	7
COCCN(Cc1nccs1)C(=O)CC1COCCN1 (stereo unspecified)	-2
Cn1cc(NC(=O)CN2CCc3onc(-c4ccc5c(c4)OCO5)c3C2)cn1	-17
CCc1noc(C)c1C(=O)N1CCC(O)(CN(C)C)C1 (stereo unspecified)	3
CCn1c(SCc2nc(-c3ccccc3C)oc2C)nc(=O)c2c(C(=O)OC)cc(C)nc21	i
O=C(O)C1CC(N2CCCC2)CCN1C(=O)Cc1cccs1 (stereo unspecified)	-11
C[C@@H]1CN([C@@H](C)CO)C(=O)CCCn2cc(nn2)CO[C@@H]1CN(C)Cc1ccccc1	32
Cc1cc(C)nc(C2CCN(C(=O)CC3CCCCC3)C2)n1 (stereo unspecified)	-9
COc1cccc(NC(=O)N2[C@@H]3CNC[C@H]2C3c2ccc(-c3ccncc3)cc2)c1 (stereo partly specified)	27&14
CN(C)c1cc(NCc2cn3c(n2)CN(CC2CC2)CC3)ncn1	-7
CC(C)C(=O)Nc1ccc2c(c1)C(=O)N(C)[C@H]1CC[C@H](CC(=O)Nc3ccc(Cl)cc3)O[C@@H]1CO2	11
COc1ccc(NC(=O)N2CCC3(CC2)CN(C(=O)C2CCC2)[C@@H](CO)c2c3c3ccc(OC)cc3n2C)cc1	135
CCCNC(=O)N1CC2(CN(Cc3cccnc3)C2)c2c(n(C)c3cc(OC)ccc23)[C@@H]1CO	-31
CSc1ncc(C(=O)Nc2ccc(Oc3ccc4c(c3)OCO4)cc2)cn1	-103*
O=C1OCCCN1CCn1ccnc1-c1ccccn1	-9
COc1cc(OC)c(CN(C)C(C)c2nc(C)sc2C)c(OC)c1 (stereo unspecified)	0
Later entries:
SMILES	Tgondii IFNg
Cc1ccc(NC(=O)NCC(c2cccnc2)c2cn(C)c3ccccc23)cc1F (stereo unspecified)	-15
COc1ccc2c3c([nH]c2c1)[C@@H](CO)N(CC1CC1)CC31CN(C(=O)NC2CCCC2)C1	-29
CCC(=O)N1CC2(CCN(C(=O)Nc3ccccc3F)CC2)c2c([nH]c3cc(OC)ccc23)[C@@H]1CO	-5
C[C@@H]1CCCCO[C@@H](CN(C)S(=O)(=O)c2ccc(F)cc2)[C@@H](C)CN([C@H](C)CO)C(=O)c2cc(N(C)C)ccc2O1	222
O=C(CC1NC(=O)N(C2CCCCC2)C1=O)Nc1cccc(CCc2ccncc2)c1 (stereo unspecified)	-41

Copied from the list.
Tgondii IFNg result of CCC(=O)N1CC2(CCN(C(=O)Nc3ccccc3F)CC2)c2c([nH]c3cc(OC)ccc23)[C@@H]1CO : -5
Tgondii IFNg result of Cc1ccc(NC(=O)NCC(c2cccnc2)c2cn(C)c3ccccc23)cc1F (stereo unspecified) : -15

5 entries from above, sorted by molar mass, ascending.
SMILES	Tgondii IFNg
O=C1OCCCN1CCn1ccnc1-c1ccccn1	-9
COc1cc(OC)c(CN(C)C(C)c2nc(C)sc2C)c(OC)c1 (stereo unspecified)	0
Cc1ccc(NC(=O)NCC(c2cccnc2)c2cn(C)c3ccccc23)cc1F (stereo unspecified)	-15
O=C(CC1NC(=O)N(C2CCCCC2)C1=O)Nc1cccc(CCc2ccncc2)c1 (stereo unspecified)	-41
COc1ccc2c3c([nH]c2c1)[C@@H](CO)N(CC1CC1)CC31CN(C(=O)NC2CCCC2)C1	-29
